GIV-Gai inh = inhibitors of GIV peptide binding to Galpha-i3, primary screen, biochemical, fluorescence polarization, FITC-GIV GBA peptide, rat Galphai3 | Guanine nucleotide-binding protein G(i) subunit alpha-3 (Rattus norvegicus), P08753 | 90 min; active compounds read low; scaled: aluminum fluoride 0%, vehicle 100% | percent of control (FP), % (no concentration beside the values) | hit rate 0.42% among 210,000 | AID 1224905, 2016;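 active means replicate mean at 85% of control or lower, very high polarization wells dropped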;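 further: wells of about 15 µL received 100 nL stock; the first replicate is given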
Target sequence (P08753 whole entry, looked up): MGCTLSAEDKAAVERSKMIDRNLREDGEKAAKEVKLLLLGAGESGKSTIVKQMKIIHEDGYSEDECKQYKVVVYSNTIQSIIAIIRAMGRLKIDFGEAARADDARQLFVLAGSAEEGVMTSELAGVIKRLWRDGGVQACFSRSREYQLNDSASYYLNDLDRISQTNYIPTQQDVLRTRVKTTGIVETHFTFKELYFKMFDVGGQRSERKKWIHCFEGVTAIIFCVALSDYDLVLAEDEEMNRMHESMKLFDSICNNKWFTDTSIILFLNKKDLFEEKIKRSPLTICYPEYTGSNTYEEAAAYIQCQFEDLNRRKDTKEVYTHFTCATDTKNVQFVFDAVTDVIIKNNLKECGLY
Sa growth 42C = S. aureus growth inhibition at 42 and 30 °C, primary screen, LtaS inhibitor project, RN4220, two temperatures; AID 720641, 2013; hit rate 0.53% among 170,000; relative growth, % (concentration not given with the values); OD600, 20 h, 42 °C; active compounds read low;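 active means growth at 42 °C up to 50% and 20 or more points under that at 30 °C, or under 10% at both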;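 further: 300 nL library stock went into each well; scaled to the means of positive and negative controls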
Sa growth 42C second temp = further read-out of Sa growth 42C, marked with its call; relative growth, %; measured here: growth at 30 °C;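 optical density after 20 h as mean of two plates; 100% = untreated growth and lower means inhibition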
Starred values were filed as active, the others as inactive; nt = no result given. A portion of the library; the hit share may differ from the screen's.

Preview (two entries):
structure | Sa growth 42C | Sa growth 42C second temp | GIV-Gai inh
S=c1oc2ccccc2n1CNc1ccccn1 | 73.9 | 82.0 | nt
CCc1cc(Cl)n2c(nc3ccccc32)c1C#N | 88.0 | 69.3 | nt

The list itself (from the top)
structure | Sa growth 42C | Sa growth 42C second temp | GIV-Gai inh
S=c1oc2ccccc2n1CNc1ccccn1 | 73.9 | 82.0 | nt
CCc1cc(Cl)n2c(nc3ccccc32)c1C#N | 88.0 | 69.3 | nt
N#CCOC(=O)c1c2c(nc3ccccc13)CCC2 | 103.7 | 93.0 | nt
CCCCCCC1C(C#N)=C(N)SC(N)=C1C#N | 19.5 | 8.0 | nt
COCC1=C(C(=O)OC(C)OC(=O)OC(C)C)N2C(=O)[C@@H](NC(=O)C(=NOC)c3csc(N)n3)[C@H]2SC1 (stereo not given in full) | 16.3 | 32.1 | nt
COc1cccc2c1C(=O)c1c(O)c3c(c(O)c1C2=O)C[C@@](O)(C(=O)CO)C[C@@H]3O[C@H]1C[C@H](N)[C@@H](O)[C@H](C)O1 | 2.0* | 0.7* | nt
COc1ccc(C(=O)Oc2c(C)occc2=O)cc1 | 110.8 | 89.8 | nt
CCC1=C[C@H]2CN(C1)Cc1c([nH]c3ccccc13)[C@@](C(=O)OC)(c1cc3c(cc1OC)N(C)[C@H]1[C@@](O)(C(=O)OC)[C@H](OC(C)=O)[C@]4(CC)C=CCN5CC[C@]31[C@@H]54)C2 | 87.8 | 66.8 | nt
Cc1nn(-c2ccccc2)c2c1C(c1ccccc1)C(NC(=O)c1ccccc1)C(=O)N2 (stereo not given) | 88.2 | 91.5 | nt
CCOc1ccc(NC(c2ccccn2)c2oc(CO)cc(=O)c2O)cc1 (stereo not given) | 103.7 | 93.7 | nt
CCN(CC)C(=O)[C@]1(c2ccccc2)C[C@@H]1CN | 89.3 | 82.7 | nt
COc1cc(CCC(=O)NC(C)C(c2ccccc2)N2CCOCC2)cc(OC)c1OC (stereo not given) | 91.3 | 92.2 | nt
CCOC(=O)c1c(NC(=O)CSc2nnnn2-c2cc(C)ccc2OC)sc(C(=O)N(CC)CC)c1C | 85.3 | 95.0 | nt
O=C(O)CNC(=O)c1cccc(Br)c1 | 85.0 | 94.6 | nt
COc1ccc(-c2cc(C(=O)NNC3=NCCCCC3)c3c(C)noc3n2)c(F)c1 | 92.4 | 93.4 | nt
NNC(=O)c1ccc(-n2cnnn2)cc1 | 87.5 | 89.3 | nt
COc1ccc(S(=O)(=O)NC23CC4CC(C2)CC(C(=O)O)(C4)C3)cc1 | 95.8 | 97.0 | nt
COC(=O)C1=C(C)NC(C)=C(C(=O)O[C@@H]2CCCN(Cc3ccccc3)C2)[C@@H]1c1cccc([N+](=O)[O-])c1 | 68.8 | 49.4 | nt
O=S(=O)(Nc1ccccc1Cl)c1ccc2nc(Nc3ccc4c(c3)CCC4)oc2c1 | 98.3 | 93.4 | nt
C[C@@H]1C[C@H]2[C@@H]3CCC4=CC(=O)C=C[C@]4(C)[C@@]3(F)[C@@H](O)C[C@]2(C)[C@H]1C(=O)CO | 87.7 | 82.2 | nt
C/C(N)=C(/C#N)C(=O)CN(C)C1CCCCC1 | 87.7 | 92.7 | nt
C#CCNCc1cc(=O)n2ccsc2n1 | 93.5 | 84.3 | nt
CCOc1ncnc2c1cnn2-c1ccccc1 | 97.0 | 85.5 | nt
Nc1ncnc2c1ncn2[C@@H]1O[C@H](CO)C[C@@H]1O | 81.9 | 76.6 | nt
Nc1nc(SCC(=O)C23CC4CC(CC(C4)C2)C3)nc(-c2ccncc2)n1 | 91.4 | 91.9 | nt
Cc1ccc(N2C(=O)NC(=O)/C(=C\c3ccco3)C2=O)c(C)c1 | 60.5 | 64.2 | nt
O=c1[nH]c2ccc(NC(=S)Nc3ccc(S(=O)(=O)N4CCOCC4)cc3)cc2[nH]1 | 106.8 | 97.3 | nt
O=C(CS)Nc1ccccc1F | 96.7 | 90.8 | nt
CCS(=O)(=O)Nc1ccc(C2=NN(S(=O)(=O)CC)C(c3ccccc3)C2)cc1 (stereo not given) | 95.6 | 88.0 | nt
Cc1c2oc3c(C)ccc(C(=O)N[C@@H]4C(=O)N[C@H](C(C)C)C(=O)N5CCC[C@H]5C(=O)N(C)CC(=O)N(C)[C@@H](C(C)C)C(=O)O[C@@H]4C)c3nc-2c(C(=O)N[C@@H]2C(=O)N[C@H](C(C)C)C(=O)N3CCC[C@H]3C(=O)N(C)CC(=O)N(C)[C@@H](C(C)C)C(=O)O[C@@H]2C)c(N)c1=O | -0.6* | -0.4* | nt
Cc1ccc(-c2c(C#N)c(SCC(=O)c3cc4ccccc4oc3=O)nc(C)c2C(=O)Nc2ccccc2C)o1 | 93.4 | 100.5 | nt
CCC(C)Sc1nc2ccccc2[nH]1 (stereo not given) | 90.3 | 85.0 | nt
CS(=O)(=O)N(CCC#N)Cc1ccc(/C=C2\C(=O)Nc3ccccc32)o1 | 88.0 | 90.2 | nt
Cc1nnc(SCC(=O)N(C)C2CCCCC2)n1C | 96.5 | 92.3 | nt
CC1(C)CC2(CC(C)(C)N1)OC(=O)N(CCCCCCN1C(=O)OC3(CC(C)(C)NC(C)(C)C3)C1(C)O)C2(C)O (stereo not given) | nt | nt | 109.9
C=CCOc1ccc(/C=C2/SC(N3CCN(c4ccccc4C)CC3)=NC2=O)cc1 | nt | nt | 110.8
COc1ccc(CNC(=O)C2CCN(c3ncnc4c3oc3ccccc34)CC2)c(OC)c1 | nt | nt | 103.0
CN1CCN(c2ncnc3c2cnn3-c2ccccc2Cl)CC1 | nt | nt | 91.8
Cc1nn(-c2nc3ccccc3[nH]2)c2c1C(c1ccc(F)cc1)CC(=O)N2 (stereo not given) | nt | nt | 99.2
COCCN1CC(C(=O)NCC2CCCCC2)CC1=O (stereo not given) | nt | nt | 104.1
O=S(=O)(NC1CCCC1)c1ccc(-c2nnc(C3CC3)o2)o1 | nt | nt | 110.4
CCOCCn1cnc2sc(C(=O)N3CCCCCC3)c(C)c2c1=O | nt | nt | 115.5
CSc1ccc(C2C(C#N)=C(N)N(c3ccc(S(N)(=O)=O)cc3)C3=C2C(=O)CCC3)cc1 (stereo not given) | nt | nt | 123.9
CCSc1nnc(-c2nn(C)c3c2CN(S(=O)(=O)c2cccc(Cl)c2)CC3)n1C | nt | nt | 101.5
COc1ccc(OC)c(CNC(=O)C2Cc3ccccc3CN2S(=O)(=O)c2ccc(C)cc2)c1 (stereo not given) | nt | nt | 99.8
CC1(O)C=CC(C(C)(C)O)CC1 (stereo not given) | nt | nt | 104.9
Cc1noc(-c2ccc(S(=O)(=O)N3CCCC3)s2)c1C | nt | nt | 99.8
COc1ccc(Nc2nc(-c3cc4cc(Br)ccc4oc3=O)cs2)c(OC)c1 | nt | nt | 98.3
CCN1CCN(CCNc2nc(C3CC3)nc3c2CCC3)CC1 | nt | nt | 102.8
NS(=O)(=O)c1ccc(CCNC(=O)CSc2nc3ccccc3c(=O)n2CCCC(=O)NCc2ccco2)cc1 | nt | nt | 107.5
Cc1ccccc1[C@@H]1C(C#N)=C(N)S[C@H]1C(=O)c1ccccc1 | nt | nt | 114.8
Cc1ccccc1C1(c2ccccc2C)CC1C(=O)Nc1ccccc1 (stereo not given) | nt | nt | 107.8
CC(=O)OCC1OC2OC3(CCCCC3)OC2C2OC3(CCCCC3)OC12 (stereo not given) | nt | nt | 115.2
Cc1nn(-c2nc3ccccc3o2)c2c1C(c1cccc(Cl)c1)CC(=O)N2 (stereo not given) | nt | nt | 103.3
CCn1c(CN(C)S(=O)(=O)c2cc(C)c(C)cc2C)nc2cc(C(=O)N(C)C)ccc21 | nt | nt | 99.7
O=C(C1CCN(S(=O)(=O)c2cccnc2)CC1)N1CCOc2ccccc21 | nt | nt | 105.2
CCc1nc(CN2C(=O)COc3ccc(S(=O)(=O)Nc4nccs4)cc32)no1 | nt | nt | 107.6
Clc1cccc(-n2cc(-c3ccccc3)c3c(NCc4ccccn4)ncnc32)c1 | nt | nt | 106.3
CC(C)c1cc(C2CCCN2C(=O)C(C)(C)C)on1 (stereo not given) | nt | nt | 100.6
O=C(CNS(=O)(=O)c1cc(-c2noc(C3CCC3)n2)cs1)Nc1ccc(F)c(Cl)c1 | nt | nt | 106.0

Remaining list, next part:
structure | Sa growth 42C | Sa growth 42C second temp | GIV-Gai inh
Fc1ccc(Br)cc1C1Nc2cccc3cccc(c23)N1 | nt | nt | 112.4
Cn1cc(CN2CCC(C(=O)NCc3cccnc3)CC2)c2cc(Cl)ccc21 | nt | nt | 99.4
COc1cccc(N2CCN(C(=O)C3CCN(S(=O)(=O)c4ccc5c(c4)CCCN5C(C)=O)CC3)CC2)c1 | nt | nt | 97.3
CC(C)Sc1nc2ccccc2n2nnnc12 | nt | nt | 99.8
CCCS(=O)(=O)c1c(S(=O)(=O)CCC)c2c(C)cccn2c1C(=O)N/N=C/c1cccc(F)c1 | nt | nt | 110.3
CC(=O)N1CCCc2cc(S(=O)(=O)N3CCC(C(=O)NC4CCN(Cc5ccccc5)CC4)CC3)ccc21 | nt | nt | 99.7
CCOc1ccccc1CNC(=O)c1ccc(Oc2nccnc2N2CCCCC2)cc1 | nt | nt | 111.1
O=C(Nc1ccc(F)cc1F)N1CCC(n2cnc3cc(F)ccc3c2=O)CC1 | nt | nt | 105.5
CCN1CCN(C(=O)C2CCCN(S(=O)(=O)c3cc(-c4noc(C5CCC5)n4)cs3)C2)CC1 (stereo not given) | nt | nt | 108.7
O=C(CCc1nc(CSc2nc3cc(Cl)ccc3o2)no1)Nc1cc(F)cc(F)c1 | nt | nt | 107.4
O=C(CSc1nc2ccccc2n1S(=O)(=O)c1cccc([N+](=O)[O-])c1)NC1CCCCC1 | nt | nt | 105.1
Cc1noc(C)c1C1CCCN1Cc1ccccc1F (stereo not given) | nt | nt | 96.1
O=C1CCCc2c1cc(C(=O)NCC1CCCCC1)c(=O)n2-c1ccc(F)cc1 | nt | nt | 101.4
Cc1cc2[nH]c(=O)[nH]c2cc1S(=O)(=O)NC(C)C | nt | nt | 106.2
Cc1cc(CN2CCN(C3CCN(C)CC3)CC2)n[nH]1 | nt | nt | 98.1
CC(C)NC(=O)c1ccc(-c2nc3cc(NS(=O)(=O)CCc4ccccc4)ccc3n2C)cc1 | nt | nt | 100.9
CC1CC2(CC(C)(c3csc(Nc4ccccc4)n3)OC2=O)C(=O)O1 (stereo not given) | nt | nt | 112.2
O=C(CCc1nc(CSc2n[nH]c(-c3ccccc3)n2)no1)Nc1ccc(Br)cc1 | nt | nt | 105.3
COC(=O)c1ccc2c(c1)N(Cc1ccccc1Cl)C(=O)CS2 | nt | nt | 105.1
CC(C)(C)C(=O)[C@@H]1[C@@H](c2ccsc2)C(C#N)(C#N)[C@H]2C=Cc3ccccc3N12 | nt | nt | 122.9
Cc1sc2c(c1C)c(=O)n(-c1ccccc1)c1nncn21 | nt | nt | 107.2
CC1(C)CC(=O)C2=C(C1)c1c(ccc3ccccc13)NC2c1ccc(O)c([N+](=O)[O-])c1 (stereo not given) | nt | nt | 104.6
Cc1ccc(C2(C)CC(C)(C)N(C(=O)CN3C(=O)CCC3=O)c3ccccc32)cc1 (stereo not given) | nt | nt | 108.5
Cc1onc(-c2ccc(F)cc2F)c1C(=O)N1CCOCC1 | nt | nt | 115.3
Cc1ccc(C(=O)N/C(=C\c2ccc(Cl)cc2)C(=O)NCCCn2ccnc2)cc1 | nt | nt | 104.1
Cc1ccccc1NS(=O)(=O)c1cc2c(c([N+](=O)[O-])c1)-c1c(cc(S(=O)(=O)Nc3ccccc3C)cc1[N+](=O)[O-])C2=O | nt | nt | 106.9
O=C(Nc1ccc(F)cc1)c1ccc2c(c1)OCCCO2 | nt | nt | 108.8
CC(=O)c1ccc(NC(=O)CSc2nc3ccccc3o2)cc1 | nt | nt | 107.6

Part of the list above in order of length of the SMILES, largest number first:
structure | Sa growth 42C | Sa growth 42C second temp | GIV-Gai inh
CC(=O)N1CCCc2cc(S(=O)(=O)N3CCC(C(=O)NC4CCN(Cc5ccccc5)CC4)CC3)ccc21 | nt | nt | 99.7
Cc1ccc(C2(C)CC(C)(C)N(C(=O)CN3C(=O)CCC3=O)c3ccccc32)cc1 (stereo not given) | nt | nt | 108.5
Cc1ccc(C(=O)N/C(=C\c2ccc(Cl)cc2)C(=O)NCCCn2ccnc2)cc1 | nt | nt | 104.1
O=C(Nc1ccc(F)cc1F)N1CCC(n2cnc3cc(F)ccc3c2=O)CC1 | nt | nt | 105.5
Cc1sc2c(c1C)c(=O)n(-c1ccccc1)c1nncn21 | nt | nt | 107.2
Fc1ccc(Br)cc1C1Nc2cccc3cccc(c23)N1 | nt | nt | 112.4
